From PubChem BioAssay
Ecoli rRNA inh: inhibitors of bacterial rRNA selective over humanized ribosomes. E. coli WT GFP vs humanized-ribosome RFP mutants, fluorescence, 24 h; stronger effect = lower value; DMSO median 0, no signal -100. AID 720706. GFP signal change (wild-type ribosome), % (test concentration not listed). hit rate 1.6% among 350,000;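 active means significant combined selectivity score with lowered wild-type GFP, culture density cut under 30%, mutant RFP and density less affected; inactive means any of these conditions unmet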; further: one replicate is shown; some compounds called inactive have numbers as strong as hits
FGF22 binding: FGF22 (human) thermal shift binding; Q9HCT0; recombinant FGF22 thermal shift, SYPRO orange fluorescence; percent of sucrose octasulfate shift, DMSO zero; calls only at 9.99 µM; hit rate 1.5% among 340,000; AID 651658;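 active means melting point raised past a set limit in the mean and every replicate; three in four hits are not shown here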
Target sequence (Q9HCT0 whole entry, looked up): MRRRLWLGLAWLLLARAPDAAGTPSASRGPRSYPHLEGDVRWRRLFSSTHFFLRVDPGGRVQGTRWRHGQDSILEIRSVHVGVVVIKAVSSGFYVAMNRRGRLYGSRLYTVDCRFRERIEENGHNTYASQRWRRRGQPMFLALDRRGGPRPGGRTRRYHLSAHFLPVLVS
Ecoli rRNA inh OD600: further read-out of Ecoli rRNA inh, marked with its call; OD600 change, %; measured here: OD600 growth;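 optical density of the mix in the first replicate; 0 = DMSO median and -100 = no signal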
Ecoli rRNA inh RFP: recorded beside Ecoli rRNA inh, whose call it bears; RFP signal change, %; measured here: RFP humanized mutant strains;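 first replicate; 0 = DMSO median and -100 = no signal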
* = called active by the depositor; i = inactive; + = active, no number; & = joins results of further samples.

Second line of a record – Ecoli rRNA inh | Ecoli rRNA inh OD600 | Ecoli rRNA inh RFP | FGF22 binding
C[C@H](CO)N1C[C@H](C)[C@H](CN(C)C(=O)Nc2ccc3c(c2)OCO3)OCCCC[C@H](C)Oc2ccc(NS(=O)(=O)c3cccs3)cc2C1=O
  -3 | -19 | 0.7 | i
O=C(Cc1cccnc1)N1CC(=O)N2[C@H](C1)[C@@H](c1ccc(C#CC3CCCCC3)cc1)[C@@H]2CO
  -18 | -57 | 26 | i
COc1ccc(NC(=O)Nc2ccc3c(c2)C(=O)N([C@@H](C)CO)C[C@H](C)[C@H](CN(C)S(=O)(=O)c2cccs2)OCCCC[C@H](C)O3)cc1
  -4 | 1 | -0.1 | i
C[C@H]1CN([C@@H](C)CO)C(=O)c2cc(C#Cc3cccnc3)cnc2O[C@@H]1CN(C)S(C)(=O)=O
  4 | 4 | -4.5 | i
CNC(=O)C[C@H]1CC[C@@H]2[C@@H](COc3ccc(NC(=O)Nc4ccccc4F)cc3C(=O)N2C)O1
  0 | -6 | -0.5 | i
C[C@@H]1CN([C@@H](C)CO)C(=O)Cc2cc(NC(=O)Cc3ccccc3)ccc2O[C@@H]1CN(C)S(=O)(=O)c1ccc(F)cc1
  1 | -3 | 1.5 | i
CN1CCN(C(=O)C[C@H]2CC[C@@H]3[C@H](COC[C@@H](O)CN3C(=O)c3ccccc3F)O2)CC1
  3 | 11 | 4.3 | i
C[C@H]1CN([C@@H](C)CO)C(=O)c2cc(-c3ccc(C#N)cc3)cnc2O[C@@H]1CN(C)C(=O)Nc1ccc(F)cc1
  -17 | -26 | 15 | i
O=C(N[C@H]1CC[C@H](CCNS(=O)(=O)c2ccccc2)O[C@@H]1CO)c1cccc(F)c1
  -2 | -1 | -2.4 | i
COc1ccc(S(=O)(=O)Nc2ccc3c(c2)C(=O)N([C@H](C)CO)C[C@H](C)[C@H](CN(C)C(=O)Nc2ccc(C(F)(F)F)cc2)O3)cc1
  -4 | -17 | -0.5 | i
O=C(NC1CCCC1)N1CCCCN2[C@@H](CO)[C@@H](c3ccc(-c4cncnc4)cc3)[C@@H]2C1
  6 | 7 | -5.7 | i
Cc1noc(C)c1S(=O)(=O)Nc1ccc2c(c1)CC(=O)N([C@H](C)CO)C[C@@H](C)[C@H](CN(C)C)O2
  2 | -2 | -3.8 | i
C[C@H](CO)N1C[C@H](C)[C@H](CN(C)S(=O)(=O)c2cn(C)cn2)Oc2ccc(NC(=O)Nc3cccc4ccccc34)cc2CC1=O
  5 | 6 | 2.0 | i
Cc1noc(C)c1NC(=O)N1C[C@H](O)COC[C@H]2O[C@H](CC(=O)NCC3CC3)CC[C@@H]21
  -2 | -3 | -1.6 | i
C[C@@H]1CN([C@@H](C)CO)S(=O)(=O)c2ccc(/C=C/c3ccccc3)cc2O[C@@H]1CN(C)C(=O)c1cccnc1
  0 | -4 | -1.0 | i
Cc1ccc(S(=O)(=O)N(C)C[C@H]2Oc3ccc(NC(=O)Nc4cccc5ccccc45)cc3CC(=O)N([C@H](C)CO)C[C@@H]2C)cc1
  0 | 5 | -0.3 | i
C/C=C/c1ccc2c(c1)O[C@H](CN(C)C(=O)Nc1cc(F)ccc1F)[C@H](C)CN([C@H](C)CO)S2(=O)=O
  -4 | -30 | -1.3 | +
O=C(C[C@H]1C[C@@H]2c3cc(NC(=O)NC4CCCCC4)ccc3O[C@@H]2[C@@H](CO)O1)NCCc1ccccc1
  3 | 0 | 1.4 | i
C[C@H]1CN([C@@H](C)CO)C(=O)c2cccc(NC(=O)c3nc4ccccc4s3)c2O[C@@H]1CN(C)C(=O)Nc1ccccc1
  -1 | -6 | 2.1 | i
CN(C)C(=O)C[C@H]1CC[C@H](NC(=O)NC2CCCCC2)[C@@H](CO)O1
  1 | -4 | -0.4 | i

Full records, quoted from the list. Order of values: Ecoli rRNA inh	Ecoli rRNA inh OD600	Ecoli rRNA inh RFP	FGF22 binding
O=C(C[C@H]1C[C@@H]2c3cc(NC(=O)NC4CCCCC4)ccc3O[C@@H]2[C@@H](CO)O1)NCCc1ccccc1 in the list: 3	0	1.4	i
CN1CCN(C(=O)C[C@H]2CC[C@@H]3[C@H](COC[C@@H](O)CN3C(=O)c3ccccc3F)O2)CC1 in the list: 3	11	4.3	i

(next part)
Second line of a record – Ecoli rRNA inh | Ecoli rRNA inh OD600 | Ecoli rRNA inh RFP | FGF22 binding
C[C@H](CO)N1C[C@H](C)[C@@H](CN(C)C(=O)C2CC2)Oc2ncc(C#CC3CCCC3)cc2C1=O
  2 | -4 | 0.5 | i
COc1ccc(S(=O)(=O)N(C)C[C@H]2OCCCC[C@@H](C)Oc3ccc(NC(=O)CCCCCC(=O)Nc4ccccc4N)cc3C(=O)N([C@H](C)CO)C[C@@H]2C)cc1
  -1 | 6 | -0.2 | i
COc1ccc(NC(=O)Nc2ccc3c(c2)C(=O)N([C@@H](C)CO)C[C@H](C)[C@H](CN(C)C(=O)c2ccccc2)OCCCC[C@@H](C)O3)cc1
  3 | 10 | -0.9 | i
CCS(=O)(=O)N1[C@H](CO)[C@@H](c2ccccc2)C12CN(C(=O)C1CC1)C2
  1 | 3 | -1.4 | i
CCNC(=O)[C@@H]1[C@@H](CO)[C@@H]2Cn3c(ccc(C4=CCCCC4)c3=O)[C@@H]2N1Cc1ccccc1
  -2 | -6 | 2.0 | i
CCCNC(=O)C[C@H]1C[C@H]2c3cc(NC(=O)NC4CCCC4)ccc3O[C@H]2[C@H](CO)O1
  3 | 1 | 0.7 | i
O=C(C[C@@H]1CC[C@@H]2[C@H](COC[C@@H](O)CN2Cc2cccc(C(F)(F)F)c2)O1)NCCc1ccccc1
  -28 | -65 | 3.7 | i
O=C(Cc1ccncc1)N[C@H]1CC[C@H](CCn2cc(-c3ccccc3F)nn2)O[C@H]1CO
  -1 | -5 | 4.0 | i
CS(=O)(=O)Nc1ccc2c(c1)[C@@H]1C[C@@H](CC(=O)N3CCc4ccccc4C3)O[C@@H](CO)[C@@H]1O2
  -3 | -10 | -4.1 | i
C[C@@H]1CCCCO[C@@H](CN(C)C(=O)Nc2cccc3ccccc23)[C@H](C)CN([C@H](C)CO)C(=O)c2cc(N(C)C)ccc2O1
  0 | 0 | 3.1 | i
CN(C)C(=O)c1ccc(-c2ccc3c(c2)[C@H]2[C@H](CCN2S(=O)(=O)c2ccccc2)[C@H](CO)N3)cc1
  -6 | -3 | -4.0 | i
CCNC(=O)C[C@H]1CC[C@@H]2[C@H](COc3ccc(NC(=O)Nc4ccccc4Cl)cc3C(=O)N2C)O1
  -1 | -6 | 0.7 | i
COc1cccc(NC(=O)N2C[C@@H](O)COC[C@@H]3O[C@@H](CC(=O)NC4Cc5ccccc5C4)CC[C@H]32)c1
  3 | -3 | -0.3 | i
C[C@H]1CN([C@@H](C)CO)C(=O)c2cc(NS(=O)(=O)c3cn(C)cn3)ccc2O[C@H]1CN(C)C(=O)Nc1ccccc1
  -1 | -4 | 1.5 | i
C[C@@H]1CN([C@@H](C)CO)C(=O)c2cccc(NC(=O)c3ccc(-c4nccs4)cc3)c2O[C@@H]1CN(C)Cc1ccc(-c2ccccc2)cc1
  0 | -5 | 1.8 | i
O=C(C[C@@H]1CC[C@H]2[C@@H](COC[C@@H](O)CN2S(=O)(=O)c2ccccc2)O1)Nc1ccc(-c2ccccc2)cc1
  -24 | -40 | 26 | i
Cc1noc(C)c1S(=O)(=O)Nc1ccc2c(c1)CC(=O)N([C@H](C)CO)C[C@H](C)[C@@H](CN(C)C(=O)Nc1ccc(F)cc1)O2
  4 | 8 | -3.2 | i
CCC/C(=C1/c2ccccc2C(=O)N1c1ccccc1)c1ccc(C=O)o1
  -24* | -16* | 2.4* | i
C[C@@H]1CCCCO[C@H](CN(C)Cc2ccc(C(=O)Nc3ccccc3N)cc2)[C@@H](C)CN([C@H](C)CO)C(=O)c2cc(NS(=O)(=O)c3cn(C)cn3)ccc2O1
  2 | 9 | -2.1 | i
C[C@@H]1CN([C@H](C)CO)S(=O)(=O)c2ccc(Br)cc2O[C@@H]1CN(C)Cc1ccncc1
  1 | -2 | 0.5 | i

Reformatted: three of the compounds above.
SMILES	Ecoli rRNA inh	Ecoli rRNA inh OD600	Ecoli rRNA inh RFP	FGF22 binding
COc1ccc(NC(=O)Nc2ccc3c(c2)C(=O)N([C@@H](C)CO)C[C@H](C)[C@H](CN(C)C(=O)c2ccccc2)OCCCC[C@@H](C)O3)cc1	3	10	-0.9	i
CCS(=O)(=O)N1[C@H](CO)[C@@H](c2ccccc2)C12CN(C(=O)C1CC1)C2	1	3	-1.4	i
CCNC(=O)[C@@H]1[C@@H](CO)[C@@H]2Cn3c(ccc(C4=CCCCC4)c3=O)[C@@H]2N1Cc1ccccc1	-2	-6	2.0	i

(next part)
Second line of a record – Ecoli rRNA inh | Ecoli rRNA inh OD600 | Ecoli rRNA inh RFP | FGF22 binding
C[C@@H]1CN([C@@H](C)CO)C(=O)c2cccc(NS(=O)(=O)c3ccccc3)c2O[C@H]1CN(C)Cc1ccc(Cl)c(Cl)c1
  -4 | 1 | -5.3 | i
C[C@@H]1CCCCO[C@@H](CN(C)C(=O)Nc2ccc(F)cc2)[C@H](C)CN([C@@H](C)CO)C(=O)c2cc(NS(=O)(=O)c3ccc(F)cc3)ccc2O1
  -1 | -7 | 8.7 | i
O=C(C1CCOCC1)N1CC2(C1)[C@H](c1ccccc1)[C@@H](CO)N2CCC(F)(F)F
  0 | 0 | -3.3 | i
COc1ccc(CN(C)C[C@H]2Oc3ccc(NS(=O)(=O)c4cccs4)cc3CC(=O)N([C@H](C)CO)C[C@@H]2C)cc1
  -2 | -16 | 1.4 | i
C[C@@H]1CN([C@@H](C)CO)C(=O)c2cc(-c3cncnc3)cnc2O[C@H]1CN(C)C(=O)c1ccccc1F
  2 | 2 | -1.4 | i
C[C@H](CO)N1C[C@H](C)[C@@H](CN(C)C(=O)Nc2ccc3c(c2)OCO3)Oc2cc(C#Cc3ccccc3)ccc2S1(=O)=O
  0 | -7 | -1.1 | i
CN(C)C(=O)c1ccc(-c2ccc3c(c2)[C@H]2[C@H](CCN2S(=O)(=O)c2ccccc2)[C@@H](CO)N3)cc1
  -5 | -4 | -2.4 | i
CCCN1[C@@H]2c3ccc(C4=CCCC4)c(=O)n3C[C@@H]2[C@@H](CO)[C@@H]1C(=O)NCc1cccc(OC)c1
  -3 | 2 | -0.1 | i
C[C@@H]1CCCCO[C@@H](CN(C)Cc2ccc(C(F)(F)F)cc2)[C@H](C)CN([C@@H](C)CO)C(=O)c2cc(NC(=O)c3ccncc3)ccc2O1
  1 | -1 | -1.8 | i
C[C@@H]1CN([C@H](C)CO)C(=O)Cc2cc(NC(=O)CCCN(C)C)ccc2O[C@H]1CN(C)S(=O)(=O)c1ccccc1
  2 | 7 | -3.1 | i
Cc1noc(C)c1NC(=O)N(C)C[C@@H]1Oc2ccc(NC(=O)Cc3cn(C)c4ccccc34)cc2C(=O)N([C@@H](C)CO)C[C@@H]1C
  1 | 8 | -1.3 | i
CCNC(=O)C[C@@H]1CC[C@H]2[C@@H](COc3ccc(NC(=O)Nc4ccc(F)cc4)cc3C(=O)N2C)O1
  -2 | 7 | 3.7 | i
C[C@H](CO)N1C[C@H](C)[C@@H](CN(C)Cc2ccc(C(=O)Nc3ccccc3N)cc2)Oc2c(NC(=O)C3CCOCC3)cccc2C1=O
  1 | 5 | -1.6 | i
C[C@H](CO)N1C[C@H](C)[C@H](CN(C)S(=O)(=O)c2ccc(F)cc2)Oc2ncc(-c3cc4ccccc4o3)cc2C1=O
  -1 | 4 | 0.0 | i
C[C@@H]1CN([C@@H](C)CO)C(=O)c2cc(-c3cccc(C(=O)N(C)C)c3)cnc2O[C@@H]1CN(C)S(=O)(=O)c1cccc(F)c1
  4 | 9 | -1.3 | i
C[C@H]1CN([C@@H](C)CO)C(=O)Cc2cc(NS(C)(=O)=O)ccc2O[C@H]1CN(C)S(=O)(=O)c1ccc(Cl)cc1
  4 | -3 | -0.3 | i
C/C=C/c1ccc([C@@H]2[C@H](CO)N3CCCCN(C(=O)Nc4ccc(F)cc4)C[C@@H]23)cc1
  4 | -5 | 2.2 | i
Cc1noc(C)c1NC(=O)Nc1cccc2c1O[C@@H](CN(C)S(=O)(=O)c1cn(C)cn1)[C@@H](C)CN([C@H](C)CO)C2=O
  0 | -3 | -0.8 | i
Cc1ccc(S(=O)(=O)Nc2cccc3c2O[C@H](CN(C)C(=O)Nc2ccccc2)[C@H](C)CN([C@H](C)CO)C3=O)cc1
  -1 | -13 | -1.2 | i
C[C@H](CO)N1C[C@H](C)[C@@H](CN(C)C(=O)Nc2cccc(F)c2)OCc2cn(nn2)CCCC1=O
  2&7 | 4&15 | 0.4&-3.2 | i

Limited to Ecoli rRNA inh OD600 (4 entries from above):
Compound,Ecoli rRNA inh OD600
Cc1ccc(S(=O)(=O)N(C)C[C@H]2Oc3ccc(NC(=O)Nc4cccc5ccccc45)cc3CC(=O)N([C@H](C)CO)C[C@@H]2C)cc1,5
CCNC(=O)C[C@@H]1CC[C@H]2[C@@H](COc3ccc(NC(=O)Nc4ccc(F)cc4)cc3C(=O)N2C)O1,7
C[C@@H]1CN([C@@H](C)CO)C(=O)c2cc(-c3cncnc3)cnc2O[C@H]1CN(C)C(=O)c1ccccc1F,2
C[C@@H]1CN([C@@H](C)CO)C(=O)Cc2cc(NC(=O)Cc3ccccc3)ccc2O[C@@H]1CN(C)S(=O)(=O)c1ccc(F)cc1,-3

A portion of the library. The share of hits here may be higher or lower than overall.
